CapD inh: Bacillus anthracis CapD inhibitors, primary screen, biochemical, fluorescence intensity | purified CapD enzyme, fluorescence intensity read-out; active compounds read low; some hits fall short of the stated cut | 0.23% of 140,000 active | z-score (test concentration not listed) | CapD gamma-glutamyltranspeptidase (Bacillus anthracis Ames Ancestor);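 active = z-score under -4 in either of two replicates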;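 also: stock transfer was 100 nL into about 40 µL; score is relative to mean and spread of the plate; one replicate is shown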
AID504770: growth inhibition of E. coli YBA685, primary screen, V. cholerae RctB inhibitors. E. coli YBA685 rctB-dependent plasmid, OD600 growth, 3 h; active compounds read low. 0.27% of 130,000 active. z-score (test concentration not listed);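 active = z-score under -2 on both plates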;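 also: wells of about 30 µL received 100 nL stock; score is relative to mean and SD of the test wells; the first replicate is given; strong numbers were not always called active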
An asterisk follows results filed as active; . = no result given.

mol | CapD inh | AID504770
COc1cccc(-c2cc(C(=O)Nc3ccncc3)c3ccccc3n2)c1 | 1.1 | .
CC12CCC(c3c(COC(=O)c4ccco4)nn(-c4ccccc4)c31)C2(C)C (stereo not given) | . | 0.3
Cc1cc(C)nc(N2CCN(C(=O)CCC(=O)NC(C)c3ccccc3)CC2)n1 (stereo not given) | 0.77 | .
CCOC(=O)N1CCN(C(=O)c2c[nH]c3ccc(S(=O)(=O)N(C)c4ccc(CC)cc4)cc3c2=O)CC1 | 0.53 | .
Cc1cc(C)n2cc(CN)nc2n1 | 78 | 0.75
CCCNC(=O)c1ccc(CN2CC(=O)N3CCCCC3C2=O)cc1 (stereo not given) | -0.09 | -0.1
O=C(Cn1ccn(-c2cccc3ccccc23)c(=O)c1=O)NCc1ccco1 | . | 0.8
N#Cc1nccnc1N1CCN(c2ccccc2)CC1 | -0.29 | 0
CC1CCc2c(oc3ccc(NS(=O)(=O)c4cccc([N+](=O)[O-])c4)cc23)C1 (stereo not given) | -0.22 | .
CC(COC(=O)NC(C)c1cccc2ccccc12)c1ccccc1 (stereo not given) | 0.17 | .
CCOC(=O)c1ccc(NC(=O)CN(c2ccc(Cl)cc2Cl)S(=O)(=O)c2ccccc2)cc1 | 0.16 | .
C=CCOc1ccc2[nH]c(C)c(C(=O)OCC)c2c1 | 1.5 | -0.1
CCCn1cc(SCC(=O)Nc2cc(C)on2)c2ccccc21 | -0.75 | 1.8
COc1ccc(-c2[nH]ncc2C(=O)NCCC(C)C)cc1 | -0.015 | 0.25
N#Cc1cc(-c2ccccc2)c[nH]c1=O | 81 | 0.2
COC(=O)c1cc(N2C(=O)/C(=C/c3ccc(OC)c(Br)c3)C=C2c2ccccc2)ccc1Cl | -0.075 | .
O=C(c1cc2ccccc2oc1=O)N(Cc1ccc(F)cc1)Cc1ccco1 | . | -0.45
CCC1(C)NC(=O)N(/N=C/c2cccs2)C1=O (stereo not given) | . | 0.15
Fc1ccc(CNC2CC2)cc1 | . | 0
COc1cc(-c2nnc(COC(=O)c3ccc(-n4nc(C)cc4C)cc3)o2)cc(OC)c1OC | . | 0.4
Cc1cc(-c2ccccc2)nc(=O)[nH]1 | . | -0.2
COCc1cc(C)nc2sc(C(=O)Nc3ccc(N4CCOCC4)cc3)c(N)c12 | -0.55 | -0.25
CN(C)Cc1c2ccccc2cc2ccccc12 | 92 | 2.1
O=C(CC1C(=O)N(c2ccccc2)C(=S)N1NC(=O)c1ccncc1)NCCc1ccccc1 (stereo not given) | 1.4 | 2.1
COc1ccc(NS(=O)(=O)c2cc3c(c([N+](=O)[O-])c2)-c2c(cc(S(=O)(=O)Nc4ccc(OC)cc4)cc2[N+](=O)[O-])C3=O)cc1 | -0.04 | .
CCN(CC)S(=O)(=O)c1cccc(C(=O)Oc2cccnc2)c1 | . | -0.5
Cc1ccc(Cn2nc(C)c(/C=C/C(=O)Nc3nnc(C4CC4)s3)c2C)cc1 | . | 0.8
Cc1cc(NCCN)nc(NS(=O)(=O)c2ccccc2Cl)n1 | -0.36 | .
CC1(C)C=Cc2cc(/C(N)=N/O)ccc2O1 | -0.26 | -1.1
COc1ccc(-n2c(C)cc(/C=C3/C(=O)NC(=O)N(Cc4ccco4)C3=O)c2C)cc1 | -0.17 | 0.45
CCOC(=S)SCc1cn2ccc(C)cc2n1 | 0.14 | -0.15
COCCn1nnnc1CN1CCC(Cc2ccccc2)CC1 | . | 0.6
CC(C)(O)/C=C1/Oc2ccc([N+](=O)[O-])cc2C1N1CCOCC1 (stereo not given) | -0.94 | .
COc1ccc(NC(=O)CN(C)S(=O)(=O)c2cccs2)cc1 | -0.38 | -0.5
COc1ccc(NC(=O)c2ccccn2)cc1OC | . | -0.75
O=C1NC(=S)S/C1=C\C=C\c1ccccc1 | -4* | -0.4
O=C(NCc1ccco1)c1ccc(Cn2c(SCc3ccccc3)nc3ccncc32)cc1 | 0.95 | -0.55
Cc1ccc(OC(=O)c2sc3nc(-c4ccc(Cl)cc4)nn3c2C)cc1 | 9.4 | -0.8
O=C1CC(c2ccccc2)CC(O)=C1C=Nc1ccccc1Cl (stereo not given) | 0.12 | 0.75
COCCC(=O)C1=CSC2=C(C(=O)CC(C)(C)C2)C1c1ccncc1 (stereo not given) | 0.03 | -0.25
C=C1SC(Nc2c(C)cccc2Cl)=NC12CCCCC2 | 0.075 | .
CC1CC(C)CN(C(=O)COC(=O)c2ccc(Cl)cc2)C1 (stereo not given) | . | 0.65
COC(OC)C12c3ccccc3C(c3ccccc31)C1C(=O)N(c3ccccc3)C(=O)C12 (stereo not given) | 0.25 | .
O=C(CC1(O)C(=O)N(Cc2ccc(Cl)cc2)c2ccccc21)c1ccco1 (stereo not given) | -0.12 | .
CC(=O)Oc1ccc(C(=O)NC2CCSC2=O)cc1 (stereo not given) | . | -0.35
O=C(O)c1cc(Cl)ccc1S(=O)c1ccccc1CO (stereo not given) | 0.29 | 0.05
CC(C)Cn1cc(NC(=O)N2CCN(c3ccccc3)CC2)c2ccccc2c1=O | 11 | -0.45
Cc1cc(S(=O)(=O)Nc2cc(C(=O)NCCc3ccccc3)ccc2N2CC3CC(C2)c2cccc(=O)n2C3)ccc1F (stereo not given) | 0.32 | .
CCOC(=O)CSc1nc2c(sc(=S)n2-c2ccc(C(=O)OCC)cc2)c(=O)n1Cc1ccco1 | -0.035 | .
Cc1cccc(OCC(O)CN2CC3(C)CC2CC(C)(C)C3)c1 (stereo not given) | . | 0.45
N#Cc1ccccc1NS(=O)(=O)c1ccc(F)cc1 | 3.3 | -0.3
CC1CC(C)CN(C(=O)CCNS(=O)(=O)c2ccc3[nH]c(=O)ccc3c2)C1 (stereo not given) | 2.2 | -0.25
CC(C)Oc1cc(-n2nnnc2-c2ccccc2Cl)c(Cl)cc1Cl | 0.09 | .
Cc1cc(-n2c(C)cc(CNC(C)c3cccs3)c2C)no1 (stereo not given) | . | 0.45
CCOC(=O)C1=C(C)N=c2s/c(=C\c3cccc(O)c3)c(=O)n2C1c1cc(Br)c(OC)cc1OC (stereo not given) | -0.57 | .
N#CC(c1cccc(C(F)(F)F)c1)c1cccc(C(F)(F)F)c1 | 1.1 | 0.85

Compounds from the list above with a furan ring, fused or not, in the order listed:
mol | CapD inh | AID504770
CC12CCC(c3c(COC(=O)c4ccco4)nn(-c4ccccc4)c31)C2(C)C (stereo not given) | . | 0.3
O=C(Cn1ccn(-c2cccc3ccccc23)c(=O)c1=O)NCc1ccco1 | . | 0.8
CC1CCc2c(oc3ccc(NS(=O)(=O)c4cccc([N+](=O)[O-])c4)cc23)C1 (stereo not given) | -0.22 | .
O=C(c1cc2ccccc2oc1=O)N(Cc1ccc(F)cc1)Cc1ccco1 | . | -0.45
COc1ccc(-n2c(C)cc(/C=C3/C(=O)NC(=O)N(Cc4ccco4)C3=O)c2C)cc1 | -0.17 | 0.45
O=C(NCc1ccco1)c1ccc(Cn2c(SCc3ccccc3)nc3ccncc32)cc1 | 0.95 | -0.55
O=C(CC1(O)C(=O)N(Cc2ccc(Cl)cc2)c2ccccc21)c1ccco1 (stereo not given) | -0.12 | .
CCOC(=O)CSc1nc2c(sc(=S)n2-c2ccc(C(=O)OCC)cc2)c(=O)n1Cc1ccco1 | -0.035 | .

Three entries out of the list, ordered by molecular weight, low to high.
mol | CapD inh | AID504770
Cc1cc(-c2ccccc2)nc(=O)[nH]1 | . | -0.2
CC1(C)C=Cc2cc(/C(N)=N/O)ccc2O1 | -0.26 | -1.1
COc1ccc(-n2c(C)cc(/C=C3/C(=O)NC(=O)N(Cc4ccco4)C3=O)c2C)cc1 | -0.17 | 0.45

Next records follow.
mol | CapD inh | AID504770
COc1ccccc1C(=O)CSc1ccc(Cl)cc1 | 2.8 | -0.35
CC(C)CCNC(=O)C1c2ccccc2Oc2ccccc21 | -0.59 | -0.4
O=C(c1cccc(Br)c1)N1CCc2ccccc2C1 | 0.7 | 0.95
CCOC(=O)Cn1c2[n+](c3ccccc31)CC(O)CS2 (stereo not given) | . | -0.95
COc1ccc(Cl)cc1S(=O)(=O)N1CCC(C#N)(c2ccccc2)CC1 | 0.36 | .
Cc1cc(NC(=O)NC(=O)c2c(Cl)cccc2Cl)no1 | 0.39 | .
CC(C)OC(=O)COc1ccc2c(=O)c(Oc3ccccc3Br)c(C(F)(F)F)oc2c1 | -0.045 | .
COC(=O)CC1c2cc(OC)c(OC)cc2CCN1C(=O)c1cccc(C#N)c1 (stereo not given) | . | -0.2
CN1C(=O)c2ccccc2C(C(=O)O)C1c1cccc(F)c1 (stereo not given) | -0.44 | 2
COC(=O)c1ccc2c(=O)n(Cc3ccc4c(c3)OCO4)c(SCC(=O)NCCc3ccc(OC)c(OC)c3)nc2c1 | 0.62 | .
O=C1NC2=C(C(=O)NNC2)C(c2cccs2)N1 (stereo not given) | . | -0.25
CC(C)(CC(=O)O)CC(=O)N1CCCc2ccccc21 | -1.2 | -0.55
O=C(O)CN1Cc2ccccc2C1=O | -0.52 | -0.4
COc1cc(C(=O)O)ccc1OC(C)C | -1.1 | 0.9
COc1ccc(/C=C(/Sc2n[nH]c(C)n2)C(=O)O)cc1OC | . | 0.25
Cc1cc(F)ccc1S(=O)(=O)Nc1ccc2oc(C)c(C(=O)OC(C)C)c2c1 | 0.32 | -0.25
Cn1c(-c2ccc3c(c2)OCO3)cc(=O)c2ccccc21 | 0.17 | .
O=C(NCCCN1CCCCC1)C1(S(=O)(=O)c2ccc(Cl)cc2)CC1 | -0.72 | -0.7
CC(=O)Nc1ccc(C=C(C#N)C#N)cc1 | -0.26 | 0.55
CN(C)c1cccc(N(C)C)c1CNC(=O)c1ccc(Cl)cc1 | 3.9 | -0.65
COc1ccc(-c2[nH]ncc2-c2cnccn2)cc1 | -0.72 | .
CNc1oc(C)nc1S(=O)(=O)c1ccc(Cl)cc1 | 0.04 | .
O=c1oc2ccccc2cc1-c1ccc(Cl)cc1 | 39 | 0.7
COC(=O)c1sccc1NS(=O)(=O)c1ccc(C(=O)OC)n1C | 0.1 | -0.3

Other compounds follow.
SMILES | CapD inh | AID504770
Cc1ccc(C2(C(F)(F)F)NC(=O)N3CCN=C3S2)cc1 (stereo not given) | . | 1.5
COc1ccc(C(=S)NCC2CCCO2)cc1 (stereo not given) | 0.23 | -0.2
Cc1ccc(C2/C(=C(\O)c3ccc(F)cc3)C(=O)C(=O)N2CCN(C)C)cc1 (stereo not given) | -0.45 | .
O=C(/C=C/c1ccc(F)cc1Cl)NNC(=O)OCCCC1CCCCC1 | 6.3 | .
O=C1CCOc2ccc(Cl)cc21 | 75 | -1.7
COc1ccc(C)cc1NC(=O)c1c(C)nc2ccccn12 | . | -0.05
CC(C)CCC(=O)Nc1ccc(S(=O)(=O)N2C(C)CCCC2C)cc1 (stereo not given) | . | -0.3
Nc1ccccc1-c1nnc(-c2ccc(Cl)c(Cl)c2)o1 | 1.3 | .
CCc1cc(C(=O)NCCN(C)C)cs1 | 0.95 | 0.5
COc1ccc(CC2SC(=Nc3ccc(Cl)cc3)NC2=O)cc1 (stereo not given) | 0.45 | .
COc1ccc(C)cc1S(=O)(=O)Nc1ccccc1 | 0.7 | 0.9
O=C(Nc1ccccc1Oc1ccc(Cl)cc1Cl)c1c(F)cccc1F | 0.37 | .
Cn1cnc2c1c(=S)[nH]c(=O)n2Cc1ccccc1 | -3.7 | -0.9
CC1(C)Cc2snc(C(N)=O)c2C1 | -2.2 | -0.8
COc1ccccc1N1C(=O)C2C3C=CC(O3)C2C1=O (stereo not given) | -0.1 | .
COC(=O)c1c(C(=O)OC)c(-c2ccc(Cl)c(Cl)c2)n2c1CCC2 | 0.22 | .
CCOC(=O)c1sc(N)c(C#N)c1COC(=O)C12CC3CC(CC(O)(C3)C1)C2 | . | -0.6
O=C(OC1CCCCC1)c1nsc(Cl)c1Cl | -0.41 | -0.9
CC(C(=O)NCC1CCCCC1)N1CCN(S(=O)(=O)c2ccccc2F)CC1 (stereo not given) | . | -0.3
O=C(CNCc1ccco1)Nc1ccccc1C(=O)c1ccccc1 | . | 0.05
Cc1noc(-c2ccc3c(c2)OCO3)c1I | -0.33 | -0.1
NC(=O)c1ccccc1NC(=O)CC(c1ccccc1)c1ccccc1 | 13 | -0.5
CCOC(=O)CNc1nnc(SCC(=O)OCC)[nH]c1=O | . | -0.8
Cc1ccc(NC(=S)Nc2ccccc2C)c(C)c1 | 0.67 | -0.3
NC1=NC(=O)C(CC(=S)Nc2ccc(N3CCCCC3)cc2)S1 (stereo not given) | . | 0.15
COC(=O)c1ccc(-c2ccco2)n1Cc1ccccc1 | 0.29 | -1.3
COc1ccc2oc(COc3ccccc3)c(C(=O)O)c2c1 | -0.005 | 0.55
Cc1ccc(CN(C)C(=O)CCN2c3ccccc3Sc3ccccc32)o1 | . | 0.3
CC(=O)OC(C(=O)Nc1nccs1)c1ccccc1 (stereo not given) | -0.1 | -0.95
CN(C)c1nc(N)nc(N(c2ccccc2)c2ccccc2)n1 | 0.49 | 0.2
CS/C(C)=C/c1sc2ccc(Cl)cc2[n+]1CCCS(=O)(=O)[O-] | -0.83 | .
O=C(Cn1c2ccccc2c(=O)c2cc(Cl)ccc21)Nc1ccc(Oc2ccccc2)cc1 | 0.45 | .
O=C(O)CCC(=O)Nc1cccc(F)c1 | 0.23 | -1.1
O=C1NC(c2ccccc2)Oc2ccccc21 (stereo not given) | . | 1.1
COc1nnc(Cl)c2ccccc12 | 0.21 | -0.4
C#C[C@]1(O)CCC2C3CCc4cc(Oc5ccc([N+](=O)[O-])cc5)ccc4C3CCC21C (stereo not given in full) | 0.06 | .
Cc1ccc(/C=N/c2sc3c(c2C(N)=O)CCC3)s1 | 0.16 | 0.25
Cc1ccc(-c2noc(CN(C(C)C)S(=O)(=O)c3ccc(F)cc3)n2)cc1 | -0.73 | 0.2
COc1ccc(NC(=O)Cc2c(C(=O)O)[nH]c3ccccc23)c(OC)c1 | -0.6 | -0.6
COC(=O)c1cc2c(cc1NC(=O)c1cccc3c1SCCC3=O)OCO2 | 0.55 | 2.5
Cc1ccc2[nH]c(=O)cc(C(=O)O)c2c1 | . | 2.6
O=C(NCCc1ccccc1)c1ccc2nc(-c3cccs3)c(-c3cccs3)nc2c1 | 0.47 | 0.1
O=C(O)CCCC(=O)Nc1ccc(C(=O)O)cc1 | -0.09 | 1.4

Screening results: PubChem, ICCB-Longwood Screening Facility, Harvard Medical School
